OX1R antag-1: antagonists of human orexin 1 receptor | CHO/OX1R cells, Fluo-8 calcium fluorescence, orexin A | inhibition, % at 5 µM | 330,000 tested, 0.43% active | AID 434989;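 active means inhibition above its plate's threshold, mean inhibition of all tested compounds on the plate plus 3 SD, cut at about 37% in these data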;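 further: 0% = orexin A challenge wells and 100% = SB-334867-A antagonist wells; not every result past the cut was called active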
Target sequence (O43613 whole entry, looked up): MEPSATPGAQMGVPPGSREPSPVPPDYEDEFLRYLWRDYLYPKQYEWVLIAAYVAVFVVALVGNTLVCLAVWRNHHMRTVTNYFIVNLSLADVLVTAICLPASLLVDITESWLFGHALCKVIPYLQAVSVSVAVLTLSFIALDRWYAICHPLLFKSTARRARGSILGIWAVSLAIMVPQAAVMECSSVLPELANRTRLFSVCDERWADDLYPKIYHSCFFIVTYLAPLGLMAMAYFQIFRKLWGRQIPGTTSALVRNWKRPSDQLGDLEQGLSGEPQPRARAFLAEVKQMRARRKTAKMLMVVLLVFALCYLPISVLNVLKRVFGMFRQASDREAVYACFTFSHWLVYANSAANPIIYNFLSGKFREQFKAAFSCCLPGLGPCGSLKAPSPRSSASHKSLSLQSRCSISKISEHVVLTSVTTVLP
OX1R antag-2: OX1R (human) antagonism; O43613; OX1R-expressing cells, FRET antagonist read-out; inhibition, % at 6.6 µM; 330,000 tested, 1.8% active; AID 485270; in the data active means inhibition mostly above about 38%, no sharp cut-off; inactive means mostly below about 40%;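 further: 0% = agonist challenge alone and 100% = reference antagonist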
The depositor's hits bear a star.

Each structure is followed by: OX1R antag-1, OX1R antag-2
COc1ccc(C(C(=O)NC(C)(C)C)N(C(=O)CCC(=O)Nc2cc(C)on2)c2cc(C)cc(C)c2)cc1 (stereo not given)
 : -48, 12
Cc1ccc2cc(/C=C3\N=C(c4ccccc4)OC3=O)c(N3CCOCC3)nc2c1
 : -14, 14
Cc1ccc(C(=O)N/C(=C/c2ccco2)C(=O)N2CCCCC2)cc1
 : -19, 14
CCC(C)c1ccccc1NC(=O)CN(C)CCOc1ccc(Cl)cc1 (stereo not given)
 : -15, 13
CCCCCN(C(=O)CCC(=O)OCC(=O)Nc1ccc(C)cc1F)c1c(N)n(CCCC)c(=O)[nH]c1=O
 : -29, -15
Fc1ccccc1N=C1Nc2cccc3cccc1c23
 : -28, 32
COc1cccc(OC)c1C(=O)N1CCN(Cc2ccncc2)CC1
 : -1, 5
CCCc1nc2n[nH]c(N)c2c2c1CCCC2
 : -8, 20
O=C(Nc1ncc(Cc2ccc(C(F)(F)F)cc2)s1)c1ccc(-c2cccc([N+](=O)[O-])c2)o1
 : -16, 1
CCOC(=O)c1cc2c(nc1NC(=S)Nc1ccccc1)CC(C)(CC)OC2 (stereo not given)
 : 4, 14
Cc1cc(Br)cc(Cl)c1OC(=O)c1ccncc1
 : -15, 26
CCC(C)(C)n1nnnc1CN(Cc1ccco1)Cc1cc2cc3c(cc2[nH]c1=O)OCO3
 : -29, 7
Cc1ccc(OCC(=O)Nc2ccc(O)c(C(=O)O)c2)cc1C
 : 8, 6
CCCCNC(=O)c1ccc(CNc2c(N3CCC(C(=O)OCC)CC3)c(=O)c2=O)cc1
 : 5, 0
N#CCSCC(=O)Nc1ccc(Br)cc1
 : -8, 8
Cc1cc(C)c(NC(=O)CSc2nc3ncc(Br)cc3[nH]2)c(C)c1
 : -10, 3
COc1ccc(C(C)C)cc1S(=O)(=O)Nc1ccncc1
 : -23, 14
CCOc1ccccc1NC(=O)C1CCN(C(=O)c2cccs2)CC1
 : -19, 6
COc1cccc(C(=O)SC2=NCCS2)c1
 : -10, 0
Cc1ccc(NC(=O)COc2coc(CN3c4ccccc4CC3C)cc2=O)c(C)c1 (stereo not given)
 : -27, 10
Cc1ccc(C)c(CNS(=O)(=O)c2ccc3c(c2)C(C)(C)C(=O)N3C)c1
 : -13, 8
COC(=O)c1cc(NC(=O)CC2C(=O)NCCN2C(=O)c2ccccc2)cc(C(=O)OC)c1 (stereo not given)
 : 8, -4
O=C(N=C1SC2CS(=O)(=O)CC2N1c1c(Cl)cccc1Cl)C1CC1 (stereo not given)
 : -9, 13
CCOc1cccc(OCCCOc2ccccc2)c1
 : -26, 14
Nc1cccc(S(=O)(=O)c2cccc(N)c2)c1
 : -5, 5
O=C(NC1CCN(S(=O)(=O)c2ccc(F)cc2)CC1)c1ccccc1
 : -12, 4
Cc1c(C(=O)N2CCOCC2)sc2ncn(CC(=O)N3CCC(C)CC3)c(=O)c12
 : -25, 11
CCOc1cccc(/C(O)=C2/C(=O)C(=O)N(Cc3cccnc3)C2c2ccco2)c1 (stereo not given)
 : -11, 12
CC1(C)Cc2nc3oc4c(=O)n(CC(=O)Nc5ccccc5)cnc4c3cc2CO1
 : -6, 3
Cn1c(=O)c(=O)n(C)c2cc(S(=O)(=O)CCC(=O)Nc3cccc(C(F)(F)F)c3)ccc21
 : -16, 6
CCC(CC)C(=O)Nc1nnc(S(=O)(=O)N2CCCC2)s1
 : -8, 7
O=C(c1cc(-c2cccc(O)c2)on1)N1CCCC1
 : -3, 15
Cc1cccc(CCNC(=O)C2CCCN(c3cnccn3)C2)c1 (stereo not given)
 : -17, 2
Cc1cc(C)c2nc(NNC(=O)c3ccc(S(=O)(=O)N4CCc5ccccc5C4)cc3)sc2c1
 : -31, 4
CCOC(=O)N1CCN(C(=O)c2c(-c3c(Cl)cccc3Cl)noc2C)CC1
 : -9, 5
COC(=O)Nc1ccc(S(=O)(=O)Nc2ccc(C(=O)O)cc2)cc1
 : -9, 13
CCC1=C/C(=C/N(C)c2ccccc2)C(=O)S1
 : -20, 10
O=C1COc2ccc(C(=O)COC(=O)C3CCN(S(=O)(=O)c4cccs4)CC3)cc2N1
 : -7, 16
Cc1ccc(C(=O)N/C(=C\c2cn(C)c3ccccc23)C(=O)N2CCN(C)CC2)cc1
 : -16, 11
CCOc1ccc(-c2nnn(CC(=O)Nc3ccccc3OC)n2)cc1OCC
 : -33, 11
Cc1nn(-c2ccccc2)c(C)c1/C=N/O
 : -9, 5
Cc1cccc(CCNC(=O)CCS(=O)(=O)c2cc3c(cc2Cl)NC(=O)CO3)c1
 : -12, 2
Cc1ccc(S(=O)(=O)N2CCCCC2)cc1NC(=O)C1CC(=O)N(Cc2ccccc2)C1 (stereo not given)
 : -15, 16
O=C(CN1C(=O)C2C3C=CC(C4CC34)C2C1=O)Oc1ccccc1 (stereo not given)
 : 0, 13
Cc1ccccc1CSc1nnc(NC(=O)Cc2cccs2)s1
 : -10, 8

Look-ups from the list:
OX1R antag-2 result of `Cc1cccc(CCNC(=O)CCS(=O)(=O)c2cc3c(cc2Cl)NC(=O)CO3)c1` : 2
OX1R antag-1 result of `Cc1nn(-c2ccccc2)c(C)c1/C=N/O` : -9
OX1R antag-2 result of `COC(=O)Nc1ccc(S(=O)(=O)Nc2ccc(C(=O)O)cc2)cc1` : 13
OX1R antag-2 result of `CCC1=C/C(=C/N(C)c2ccccc2)C(=O)S1` : 10

The list goes on.
Each structure is followed by: OX1R antag-1, OX1R antag-2
O=C(Cc1ccccc1[N+](=O)[O-])NNC(=O)Nc1ccc2c(c1)OCO2
 : -7, 11
COc1ccc(NC(=S)Nc2ccccc2Cl)cn1
 : -15, 12
Cc1c(Cl)cccc1NC(=O)CC1SC(=NCC2CCCO2)NC1=O (stereo not given)
 : -4, 9
NC(=S)N/N=C/c1coc2ccc(O)cc2c1=O
 : 23, 31
COc1ccccc1CNC(=O)c1cnccn1
 : -10, 4
CCCN(C(=O)C(C)Oc1cccc(Cl)c1)c1c(N)n(Cc2ccccc2)c(=O)[nH]c1=O (stereo not given)
 : 7, 30
O=C(N/C(=C/c1cccs1)C(=O)N1CCOCC1)c1ccccc1
 : -17, 4
O=C1CCCc2nc(N3CCN(C(c4ccccc4)c4ccccc4)CC3)ncc21
 : -8, 6
COCC(=O)Nc1nnc(Cc2ccc(OC)cc2)s1
 : -10, 15
CC1CCN(C2CC(=O)N(c3ccc(Br)cc3Br)C2=O)CC1 (stereo not given)
 : -5, 2
COC(=O)c1ccc2[nH]c3c(c2c1)CC(C)CC3 (stereo not given)
 : -26, 11
O=C(COc1ccccc1)NCC(c1ccco1)N1CCCCC1 (stereo not given)
 : -22, 5
O=C(CN(c1ccc(Cl)cc1)S(=O)(=O)c1ccccc1)N1CCN(c2ccccc2)CC1
 : -17, 20
CCOc1cc(CNc2ccc3c(c2)OCCO3)cc(Br)c1OCC
 : -31, 5
COc1ccc(-c2nc(CN3CCN(c4cc(C)nc(C)c4)CC3)c(C)o2)c2ccccc12
 : -33, -2
CCc1ccc(C(=O)NNc2ccc(F)cc2F)cc1
 : -1, 7
CCN1CCC(=NNC(=O)c2ccc(C)c([N+](=O)[O-])c2)CC1
 : -17, 53
Cc1ccc2c(c1C)NC(C(=O)O)C1CC=CC21 (stereo not given)
 : -8, 15
O=C(COc1ccc(Cl)cc1Cl)OCn1nnc2ccccc2c1=O
 : -6, 12
Clc1ccc2c(NCc3ccccn3)ccnc2c1
 : -12, 9
O=C(CCNC(=O)c1ccco1)Nc1ccc(F)c(Cl)c1
 : 8, 9
O=C1[C@@H]2CSCN2C(=O)CN1Cc1ccc(F)cc1
 : -21, 1
Cc1cc(-c2ccccc2)nc2cc(C(=O)NCCCn3ccnc3)nn12
 : -23, 13
COc1ccccc1NC(=O)c1ccc2nc(C)sc2c1
 : -28, 23
CCOc1ccc(C(=O)COC(=O)Cc2n[nH]c(=O)c3ccccc23)cc1
 : -9, 22
CCOC(=O)c1c(C2CC2)csc1NC(=O)COC(=O)c1ccc[n+]([O-])c1
 : -14, 8
CN(C)S(=O)(=O)c1ccc(Cl)c(NC(=O)COC(=O)CC(NC(N)=O)c2ccc(Cl)cc2)c1 (stereo not given)
 : -9, 8
CCOC(=O)c1sc(NC(=O)c2ccc3ncsc3c2)nc1C
 : -8, 8
CCOc1ccc(-c2nc(C#N)c(N3CCN(Cc4ccccc4)CC3)o2)cc1
 : -52, 21
CNc1cc(CS(=O)c2ccccc2)nc(-c2ccccc2)n1 (stereo not given)
 : -1, 18
O=C(CCCN1C(=O)CCC1=O)Nc1ccc2c(c1)OCCO2
 : -10, -3
CCN1CCN(c2ccc(S(=O)(=O)N3CCOCC3)cc2NC(=O)/C=C/c2ccc(OC)cc2OC)CC1
 : -21, -1
CC1CCN(Cc2ccc(NC(=O)C3CCN(c4nnc(-n5cccc5)s4)CC3)cc2)CC1
 : -24, 11
COc1ccccc1-c1c(C)oc2c(CN3CCOCC3)c(O)ccc2c1=O
 : -21, 0
Cc1nc2ccc(C(=O)O)cc2c2c1CC(C)S2 (stereo not given)
 : -1, 34
CCOC(=O)C1(c2csc(N)n2)COC(=O)C1 (stereo not given)
 : -18, 13
CNC(=S)N1C2CCC1CC(NC(=O)NC13CC4CC(CC(C4)C1)C3)C2 (stereo not given)
 : -23, 17
COc1ccccc1/C=C\C=N\n1c(-c2ccc(Cl)cc2)n[nH]c1=S
 : -10, 19
COc1cccc(C2CC(c3ccc(C)cc3)n3ncnc3N2)c1 (stereo not given)
 : -20, 12
Cc1cc(C)cc(C(=O)NCCn2cc(SCC(=O)N3CCOCC3)c3ccccc32)c1
 : -44, 9
CCCCCCNCc1c(F)cccc1Cl
 : -10, 24
COc1ccc(-n2cc3c(-c4cccc(Br)c4)nnc(C)c3n2)cc1
 : -18, 18
COc1ccc(C(=O)NCC(=O)Nc2cccc(S(=O)(=O)NCc3ccco3)c2)cc1OC
 : -11, 16
CC1CCCC(NC(=O)NC(=O)CCl)C1C (stereo not given)
 : -29, 13
CCS(=O)(=O)N1CCN=C1SCc1cccnc1
 : -7, 14

Entries of single compounds, quoted from the list.
CCN1CCN(c2ccc(S(=O)(=O)N3CCOCC3)cc2NC(=O)/C=C/c2ccc(OC)cc2OC)CC1 reads OX1R antag-1 = -21; OX1R antag-2 = -1
CCS(=O)(=O)N1CCN=C1SCc1cccnc1 reads OX1R antag-1 = -7; OX1R antag-2 = 14

An excerpt from above in order of the OX1R antag-2 value, descending.
Each structure is followed by: OX1R antag-1, OX1R antag-2
Cc1nc2ccc(C(=O)O)cc2c2c1CC(C)S2 (stereo not given)
 : -1, 34
CCCCCCNCc1c(F)cccc1Cl
 : -10, 24
COc1ccccc1/C=C\C=N\n1c(-c2ccc(Cl)cc2)n[nH]c1=S
 : -10, 19
COc1ccc(-n2cc3c(-c4cccc(Br)c4)nnc(C)c3n2)cc1
 : -18, 18
COc1ccc(C(=O)NCC(=O)Nc2cccc(S(=O)(=O)NCc3ccco3)c2)cc1OC
 : -11, 16
Cc1cc(C)cc(C(=O)NCCn2cc(SCC(=O)N3CCOCC3)c3ccccc32)c1
 : -44, 9
O=C(CCCN1C(=O)CCC1=O)Nc1ccc2c(c1)OCCO2
 : -10, -3

(list continues)
Each structure is followed by: OX1R antag-1, OX1R antag-2
CCOC(=O)c1cc(-c2ccc(OC)cc2)nn1-c1ccc(C(=O)O)cc1
 : -11, 22
O=C(CSc1nnc(Cc2cccs2)n1Cc1ccco1)Nc1ccc(Br)cc1
 : -20, 14
COc1cccc(C(=O)N2CCN(C(=O)C3COc4ccccc4O3)CC2)c1 (stereo not given)
 : -22, 13
CC(=O)Oc1cccc(N2C(=O)C3CC=CCC3C2=O)c1 (stereo not given)
 : 10, -2
CCn1c(C)c(C(C)=O)c(N2CCC(C(N)=O)CC2)nc1=S
 : -12, 19
Cc1occc1C(=O)N/N=C/C=C/c1ccccc1
 : -7, 9
CC(Sc1nnc(NC2CCCCC2)s1)C(=O)Nc1ccc2c(c1)C(=O)c1ccccc1C2=O (stereo not given)
 : 20, 40
CC(C)c1ccc(OCC(=O)NC(Cc2c[nH]c3ccccc23)C(=O)O)cc1 (stereo not given)
 : 2, 16
NS(=O)(=O)c1cccc(NC(=O)CSc2ccccn2)c1
 : -11, 8
Cc1ccc(C(=O)C(=S)N2CCOCC2)cc1
 : 1, 2
Cc1cc(F)ccc1NC(=O)CCc1c(C)nn(-c2ccc(N3CCCCC3)nn2)c1C
 : -22, 12
O=C(Nn1c(Cc2ccccc2)nc2ccccc2c1=O)c1c(O)c2cccc3c2n(c1=O)CCC3
 : -26, 9
Nc1ccn(Cc2ccccc2F)n1
 : -24, 24
COc1ccc(CNc2ccc3c(c2)CCC3)cc1Br
 : -30, 5
O=C(/C=C/c1cccs1)NCc1ccc2c(c1)OCO2
 : -7, 5

Part of the list above, as tab-separated lines.
Compound	OX1R antag-1	OX1R antag-2
NS(=O)(=O)c1cccc(NC(=O)CSc2ccccn2)c1	-11	8
CCn1c(C)c(C(C)=O)c(N2CCC(C(N)=O)CC2)nc1=S	-12	19
O=C(/C=C/c1cccs1)NCc1ccc2c(c1)OCO2	-7	5
COc1cccc(C(=O)N2CCN(C(=O)C3COc4ccccc4O3)CC2)c1 (stereo not given)	-22	13

Carrying on.
Each structure is followed by: OX1R antag-1, OX1R antag-2
Cc1noc(C)c1COC(=O)CCC(=O)c1ccc(F)cc1
 : -7, 21
CCC(C)SCC(=O)Nc1ccc(S(=O)(=O)N2CCOCC2)cc1OC (stereo not given)
 : -19, 14
O=C(Nc1ccc(NC(=O)C2CC2)nc1)c1ccco1
 : -9, 16
Cc1cc(C)n(C(=O)CNC(=O)c2cccs2)n1
 : -26, 20
O=C(NCc1ccccn1)c1c(O)c2c([nH]c1=O)CCCC2
 : -26, 7

Some of the compounds tested; most or all hits stand in other tables.
